High-throughput results: PubChem BioAssay, several laboratories
Mtb growth – M. tuberculosis H37Rv growth inhibitors, H37Rv strain (AID 1626); M. tuberculosis H37Rv growth inhibition; higher % means a stronger effect; inhibition, % at 10 µM, or IC50 in µM where a hit was titrated; hit rate 0.95% among 220,000;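 active = confirmed in a dose series; inconclusive = inhibition above 80% but not taken into the dose series; inactive = below 80% or under 30% at every dose of the series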;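 note: bacteria incubated seven days before Alamar blue readout; 0% = bacteria only wells and 100% = bacteria with antibiotic wells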
RecA intein inh – Mtb RecA intein splicing inhibition | P9WHJ3 | hit rate 0.75% among 290,000 | AID 2221 | cell-free RecA intein splicing, fluorescence | inhibition, %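 (about 9 µM by stock and volumes)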; in the data active = inhibition above about 30%; inconclusive = no clear call, values can overlap the other calls;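 note: 0% = vehicle wells and 100% = reference inhibitor control wells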
Target sequence (P9WHJ3 whole entry, looked up): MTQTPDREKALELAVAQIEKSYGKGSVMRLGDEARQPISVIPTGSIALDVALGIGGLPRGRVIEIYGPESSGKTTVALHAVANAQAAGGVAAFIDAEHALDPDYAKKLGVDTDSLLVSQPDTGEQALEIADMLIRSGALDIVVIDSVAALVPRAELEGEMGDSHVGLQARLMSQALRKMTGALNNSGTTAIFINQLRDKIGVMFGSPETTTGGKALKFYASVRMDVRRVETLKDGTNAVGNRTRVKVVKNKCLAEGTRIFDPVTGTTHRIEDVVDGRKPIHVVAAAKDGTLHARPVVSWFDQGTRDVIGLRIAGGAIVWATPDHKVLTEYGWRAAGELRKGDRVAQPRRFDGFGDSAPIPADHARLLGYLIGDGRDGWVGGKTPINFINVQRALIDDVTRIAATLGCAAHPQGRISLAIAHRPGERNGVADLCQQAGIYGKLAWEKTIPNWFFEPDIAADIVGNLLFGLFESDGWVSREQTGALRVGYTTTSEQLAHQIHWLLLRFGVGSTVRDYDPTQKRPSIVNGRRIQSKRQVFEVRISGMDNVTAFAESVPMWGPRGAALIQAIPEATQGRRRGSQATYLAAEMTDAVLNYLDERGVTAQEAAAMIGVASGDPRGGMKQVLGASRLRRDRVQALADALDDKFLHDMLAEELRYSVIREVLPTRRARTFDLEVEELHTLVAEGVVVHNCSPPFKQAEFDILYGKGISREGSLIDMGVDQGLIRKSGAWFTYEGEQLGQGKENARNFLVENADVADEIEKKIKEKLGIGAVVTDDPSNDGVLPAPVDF
YopH inh – inhibitors of Yersinia enterocolitica YopH tyrosine phosphatase; fluorescence Ex485/Em525; inhibition, %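 (about 10 µM by stock and volumes)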; hit rate 0.16% among 140,000;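 active = inhibition of 50% or more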;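 note: controls were vehicle for no effect and minimum signal wells for full effect; inactives centre near -20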
Arbovirus inh – arbovirus infection inhibition. arbovirus infection cell-based antiviral screen. inhibition, % at 10 µM. hit rate 0.37% among 200,000. AID 1251;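 active = inhibition from about 30%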;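 note: bluetongue infection of BSR cells; cell survival read as ATP light after 72 h; 0% = infected wells without compound and 100% = uninfected wells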
Mtb bLac sens – beta-lactam sensitization of Mtb H37Rv | inhibition, % at 25 µM | hit rate 0.27% among 330,000 | M. tuberculosis H37Rv growth with meropenem, percent inhibition; hits of this screen are not shown here;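 active = about 74% or more and at least 40 points above the plate without the antibiotic, then above 30% in a dose series; inconclusive = first-round hits that could not be retested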;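 note: growth measured after seven days incubation then overnight dye step; 0% = bacteria only wells and 100% = bacteria with antibiotic; twin plates without the antibiotic show which effects depend on it; some results filed as inactive read as strong as hits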
Arbovirus inh repeat – second read-out of Arbovirus inh, no call of its own (marks repeat the call); inhibition, %; measured here: 10K subset replicate screen; many hits read low in the repeat;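 first of two repeat runs on a subset; 0% = infected and 100% = uninfected wells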
* marks the source's active call; other numbers are inactive results; ? = inconclusive; · = not tested or not shown. A portion of the library; the hit share may differ from the screen's.

SMILES | Mtb growth | RecA intein inh | YopH inh | Arbovirus inh | Mtb bLac sens | others
COc1ccc(C2CC(=O)C3=C(C2)Nc2ccccc2N(C(=O)CCC(=O)O)C3c2ccc(F)cc2)cc1 (centres undefined) | -4% | 0.6 | · | · | -7
O=C(CCl)NCc1cc(-c2ccc(Cl)cc2)no1 | 63% | · | · | -14 | 98
COC(=O)C(C)(C)ONC(=O)Nc1ccccc1[N+](=O)[O-] | 1% | 0.7 | · | 5 | -4
O=C(NCCc1c[nH]c2ccccc12)c1cc2sccc2n1Cc1ccccc1 | -10% | 1.6 | -9 | 15 | -2
CC1CCCCC1NC(=O)/C(C#N)=C/c1ccccc1F (centres undefined) | 11% | 8.4 | -23 | -37 | 74
Cc1ccc(C(=O)OCn2ncc(Cl)c(Cl)c2=O)cc1 | 54% | 75* | -10 | -33 | 100
CCOC(=O)c1c(NC(=O)Cn2nc(C(=O)O)c3ccccc3c2=O)sc(C)c1C | 0% | 3.1 | · | · | -7
Cc1ccccc1NC(=S)Nc1ccc2cn[nH]c2c1 | 6% | 6.2 | · | 7 | -3
Cc1noc(C)c1CSc1ncnc2sc3c(c12)CCC3 | -1% | 0.9 | -50 | -8 | ·
Cc1cc(C(=O)COC(=O)C2CC2)c(C)n1-c1ccc(F)cc1 | -3% | -0.6 | · | 3 | 53
S=c1[nH]nc(Cn2nnc3ccccc32)n1-c1ccccc1 | 1% | -1.7 | · | -3 | 4
C/C(=N\OCC(=O)N/N=C/c1ccc(C)cc1O)c1cccs1 | -12% | -3.4 | -2 | -7 | 18
Cc1ccc(N2CCN(C(=O)C3CCCN(c4ncnc5c4nc4n5CCCCC4)C3)CC2)c(C)c1 (centres undefined) | · | -7.4 | · | · | 98
O=C(O)CCC(NC(=O)C(Cc1ccc2c(c1)OCO2)NC(=O)c1ccccc1)C(=O)O (centres undefined) | -3% | · | -22 | -2 | ·
CCOc1ccc(NC(=O)NC2CCS(=O)(=O)C2)cc1 (centres undefined) | · | -0.1 | · | · | 4
COC(=O)c1[nH]c(C)c(/C(O)=C2\C(=O)C(=O)N(CCN(C)C)C2c2ccco2)c1C (centres undefined) | -5% | -2.6 | -21 | 6 | -2
CCc1cc(=O)oc2cc(C)cc(OCC(=O)NC3CC3)c12 | · | -3.3 | · | · | -8
CCOC(=O)/C(C#N)=C1/SC(CC)C(=O)N1c1ccc(C)cc1 (centres undefined) | 2% | 8.0 | -30 | -4 | -2
OC(c1cccnc1)c1cccs1 (centres undefined) | -5% | · | -44 | -3 | 2
Cc1ccc(C(=O)C[n+]2ccc3ccccc3c2)cc1 | -3% | 4.0 | · | 6 | 1
Cc1cc(C)cc(Nc2cnn(C34CC5CC(CC(CC(=O)O)(C5)C3)C4)c(=O)c2Cl)c1 | 4% | · | -27 | 15 | 0
Cc1ccc(-n2cc(C(=O)c3ccc(F)cc3)nn2)cc1Cl | · | -2.8 | -42 | -9 | -6
CN(CC(=O)Nc1ccccc1Cl)C(=O)COC(=O)C1CCN(c2ccc(C(F)(F)F)cn2)CC1 | · | -0.4 | · | · | -6
Cn1nc(C(=O)N2CCCCC2)c2c1-c1ccccc1S(=O)(=O)C2 | · | -1.4 | · | · | 3
Cc1ccc(S(=O)(=O)Cc2ccc(C(=O)NC3CCCC3)o2)cc1 | · | -3.2 | · | · | 1
CCN1C(=O)N[C@@H](CCc2ccccc2)[C@H](C(C)=O)[C@H]1C | -14% | -2.7 | · | · | -3
CC(=O)N1CCN(c2ccc(NCc3ccc4c(c3)OCO4)cc2)CC1 | -2% | -1.4 | -8 | -17 | 14
O=C(NCc1cccc(F)c1F)C1CCC(=O)N(C2CCCCCC2)C1 (centres undefined) | · | -1.8 | · | · | -2
COc1ccc(CNC(=O)Cn2nc(C)c3c(C)n(-c4ccc(C)cc4)nc3c2=O)cc1OC | · | -1.5 | · | · | -2
COc1ccc(C2C(C#N)=C(N)OC3=C2C(=O)CC(C)(C)C3)cc1 (centres undefined) | 3% | · | · | 1 | -1
C=CCC(=O)N1CCCC(CCC(=O)NCc2ccccc2F)C1 (centres undefined) | 0% | -1.5 | · | 7 | 6
Cc1nn(Cc2ccc(Cl)cc2)c(C)c1NC(=O)c1ccc([N+](=O)[O-])cc1 | -5% | 1.2 | -15 | 1 | -11
CCOC(=O)C1(CCCc2ccccc2)CCN(C(=O)COC)CC1 | 1% | -0.8 | · | · | -6
COc1ccc(OCC(=O)OCC(=O)NCc2ccc(F)cc2)cc1 | 5% | 2.1 | -2 | -4 | -1
Cc1nc2ccccc2c(=O)n1/N=C/c1ccco1 | 4% | 0.6 | · | 3 | -4
CN1C(C(=O)Nc2ccccn2)=C(O)c2sc(Cl)cc2S1(=O)=O | · | -1.7 | · | · | 4
COc1cccc(NS(=O)(=O)c2ccc(-c3coc(C)n3)cc2)c1 | · | -3.2 | · | · | 2
O=C(CSc1nc2ccccc2c(=O)n1-c1ccccc1Cl)Nc1cccc(S(=O)(=O)N2CCOCC2)c1 | 6% | 1.7 | -28 | 0 | -4
CCOc1ccc(N(C)S(=O)(=O)c2ccc(-c3ccc(=O)[nH]n3)s2)cc1 | · | -0.6 | · | · | -5
COc1ccc(CNC(=O)C2(CC3CC(c4ccccc4)=NO3)CCN(C(=O)Cc3ccc(F)cc3)CC2)cc1 (centres undefined) | -1% | -4.7 | · | · | -3
COc1ccc(S(=O)(=O)Nc2c(C(=O)O)[nH]c3ccccc23)cc1 | · | -0.4 | · | · | -3
Cc1ccc(NC(=O)CO/N=C(\N)c2nonc2N)cc1 | -3% | 1.1 | -23 | 9 | -2
COc1ccc(CN2CCN(C3CCC3)CC2CCO)c(F)c1 (centres undefined) | · | -2.0 | · | · | 3
C=CCNC(=O)c1oc2ccc(S(=O)(=O)N(CC)CC)cc2c1C | 5% | 1.1 | -45 | 0 | ·
C[N+](C)(C)C(Cc1ccccc1)C(=O)[O-] (centres undefined) | -10% | -1.9 | · | · | -2
O=C1CCCc2[nH]nc(-c3cccnc3)c21 | -3% | 1.6 | 1 | 4 | 1
S=c1[nH]c(-c2ccccc2)cn1/N=C/c1cccnc1 | 5% | -1.1 | · | · | -6
CSc1nncn1/N=C/c1ccc([N+](=O)[O-])cc1 | 2% | -4.3 | · | 1 | 2
COc1cc(NC(=O)CCc2nnc3ccc(NCc4ccco4)nn23)cc(OC)c1 | · | 1.7 | · | · | 1
Cc1ccc(NC(=O)COC(=O)C2CCC(=O)N2)c([N+](=O)[O-])c1 (centres undefined) | -2% | 1.4 | · | 3 | 17
The list continues.
SMILES | Mtb growth | RecA intein inh | YopH inh | Arbovirus inh | Mtb bLac sens | others
COc1ccc(S(=O)(=O)NC2CCCC2)c(OC)c1 | · | -0.3 | · | · | -13
COc1ccc(CCNC(=O)c2ccc3c(c2)N(Cc2ccc(C)cc2)CCS3)cc1OC | · | 0.4 | · | · | 1
CC(C)N1CCc2c(sc(NC(=O)c3ccc(S(=O)(=O)N4CCCCC4C)cc3)c2C(N)=O)C1 (centres undefined) | · | -1.4 | · | · | 2
COc1cc(CC(=O)Nc2cccc(SC)c2)cc(OC)c1OC | -5% | -1.6 | · | 17 | -1
CC(=O)c1ccc(S(=O)(=O)N2CCN(c3nc4c(C)c(C)ccc4cc3C#N)CC2)cc1 | 1% | 2.6 | -5 | · | 4
Cc1ccc(C(C)C)c(OCC(=O)Nn2c(C)nc3ccccc3c2=O)c1 | 6% | 0.6 | -16 | -5 | 96
Cc1ccc(C(=O)Nc2ncc(Cc3ccccc3)s2)o1 | -10% | 1.1 | -6 | -24 | 0
O=C(CN1C(=O)NC2(CCCCC2)C1=O)Nc1cccc(S(=O)(=O)N2CCOCC2)c1 | 2% | -3.9 | · | · | -5
CCCCN(CCCC)C(=S)NC(=O)c1ccccc1Cl | ? | 1.9 | -28 | -25 | 63
CN1C(=O)/C(=C/C=C/c2ccco2)C(=O)NC1=S | -5% | -3.0 | · | · | -3

Structures shown so far that contain an aryl thioether with sulfur outside any ring (4):
SMILES | Mtb growth | RecA intein inh | YopH inh | Arbovirus inh | Mtb bLac sens | others
Cc1noc(C)c1CSc1ncnc2sc3c(c12)CCC3 | -1% | 0.9 | -50 | -8 | ·
O=C(CSc1nc2ccccc2c(=O)n1-c1ccccc1Cl)Nc1cccc(S(=O)(=O)N2CCOCC2)c1 | 6% | 1.7 | -28 | 0 | -4
CSc1nncn1/N=C/c1ccc([N+](=O)[O-])cc1 | 2% | -4.3 | · | 1 | 2
COc1cc(CC(=O)Nc2cccc(SC)c2)cc(OC)c1OC | -5% | -1.6 | · | 17 | -1

Continued:
SMILES | Mtb growth | RecA intein inh | YopH inh | Arbovirus inh | Mtb bLac sens | others
O=C(COC(=O)C1CCN(S(=O)(=O)c2cccc3cccnc23)CC1)c1ccc([N+](=O)[O-])cc1 | 2% | -1.2 | -1 | 4 | 5
COc1cccc(CC(=O)Nc2ccc(S(=O)(=O)Nc3nc(C)cc(C)n3)cc2)c1 | 22% | -2.1 | · | -4 | 19
CN(C)c1nc2ncn(Cc3ccccc3)c2c(=O)[nH]1 | -6% | -14 | · | · | 1
O=C(CCC(=O)OCC(=O)c1ccc(-c2ccccc2)cc1)Nc1cccc2cccnc12 | -13% | 0.0 | -31 | -1 | -1
CCn1c(C)nc2cc(C(=O)OC(C(F)(F)C(F)F)C(F)(F)C(F)F)ccc21 | · | -1.9 | -21 | 0 | 100
CN1CCN(C(CNC(=O)C(=O)Nc2ccc3c(c2)OCO3)c2ccc(F)cc2)CC1 (centres undefined) | · | 0.4 | · | · | -9
COc1ccc(NC(=O)c2c(NC(=O)CCC(=O)O)sc3c2CCCCC3)cc1 | -5% | 0.1 | · | -1 | 5
CC1=CS(=O)(=O)CC1Sc1nc2ccccc2[nH]1 (centres undefined) | -3% | 1.0 | -18 | 1 | 0
CCOc1ccc(OCC)c(Nc2cc(C)nc3nc(C)nn23)c1 | · | 2.2 | -12 | -10 | 4 | Arbovirus inh repeat=-11
O=c1c2ccccc2nc(/C=C/c2ccc(Br)cc2)n1CCO | · | -17 | · | · | 5

Reprinted from the part before: four entries, followed by the next part.
SMILES | Mtb growth | RecA intein inh | YopH inh | Arbovirus inh | Mtb bLac sens | others
COc1ccc(NC(=O)c2c(NC(=O)CCC(=O)O)sc3c2CCCCC3)cc1 | -5% | 0.1 | · | -1 | 5
CC1=CS(=O)(=O)CC1Sc1nc2ccccc2[nH]1 (centres undefined) | -3% | 1.0 | -18 | 1 | 0
CCOc1ccc(OCC)c(Nc2cc(C)nc3nc(C)nn23)c1 | · | 2.2 | -12 | -10 | 4 | Arbovirus inh repeat=-11
O=c1c2ccccc2nc(/C=C/c2ccc(Br)cc2)n1CCO | · | -17 | · | · | 5
CN(C(=O)COc1ccc2ccc(=O)oc2c1)C1CCS(=O)(=O)C1 (centres undefined) | · | -1.6 | · | · | -3
COc1ccc([N+](=O)[O-])cc1N(CC(=O)NCCC1=CCCCC1)S(C)(=O)=O | -2% | -1.1 | -12 | 4 | 3
O=C1C2C(C(=O)N1c1ccncc1)C1C=CC2C12CC2 (centres undefined) | -3% | -2.1 | -36 | 3 | 2
Cc1ccc(-n2c(O)c(/C=N/NC(=O)c3ccncc3)c(=O)[nH]c2=O)cc1 | ? | -2.8 | -10 | -1 | 99
CCc1cc(=O)oc2cc(C)cc(OCC(=O)N[C@@H](CSCc3ccccc3)C(=O)O)c12 | · | -1.9 | · | · | -6
CC1CC(NC(=O)c2c(O)nc3sccn3c2=O)CC(C)(C)C1 (centres undefined) | · | 26 | · | · | 9
O=C(COC(=O)C1C2CC3OC(=O)C1C3C2)Nc1ccccc1 (centres undefined) | · | -0.5 | · | · | -6
O=C(CCl)Nc1ccc(N=Nc2ccccc2)cc1 | 48% | 79* | -11 | -22 | ·
COc1ccccc1NCC(=O)c1ccc(Cl)cc1 | · | 5.2 | · | · | -5
Cc1ccc2nc3sc(C(=O)NCc4ccco4)c(N)c3cc2c1 | 1% | -0.7 | 2 | -18 | 34
COc1cc2c(cc1NC(=O)c1cccnc1)oc1ccccc12 | 10% | 2.7 | -16 | -11 | -1
OCCNc1nc(Nc2ccc(Cl)cc2)nc(N2CCCC2)n1 | 7% | -1.1 | · | · | 40
Cc1cccc(-c2ocnc2C(=O)Nc2ccccc2C(=O)N2CCCC2)c1 | · | 2.6 | · | · | 2
COC(=O)CN(c1ccccn1)S(=O)(=O)c1ccccc1 | -16% | -0.6 | -26 | 3 | -4
O=C(CCc1nnc(CCCc2ccccc2)o1)NCCN1CCOC1=O | -2% | 0.3 | · | 7 | 1
COC(=O)n1ccc(C(=O)Nc2ccccc2F)n1 | -2% | -2.5 | -14 | 11 | 0
COc1ccc(C2(C)NC(=O)NC2=O)cc1OC (centres undefined) | · | -0.3 | · | · | -7
CC(C)(C)c1ccc(/C=C/C(=O)N2CCc3ccccc3C2)cc1 | -4% | 17 | -32 | 15 | 18
COC(=O)CCn1nc(-c2ccc(Cl)cc2)c2ccccc2c1=O | 0% | -1.6 | · | -4 | 89
